# MARV entry inh – blocks Marburg virus binding to or entry into cells | Marburg virus pseudotyped entry inhibition, cell reporter; control for the full effect not named in the record; about a third of the inactives were read at about 46 µM | AID 540276 | 300,000 tested, 1.8% active | Potency, µM (series often up to 37.8 µM), without a hit: at the highest dose activity change, negative = inhibition, usual class: inhibitors; active = well fitted inhibition curve with a large enough effect; inconclusive = small, poorly fitted or top-dose-only effect, or effect the other way; inactive = flat fitted curve, though single readings scatter; tested in HEK293 cells; about a fifth of its hits are not listed in these tables; also: % is scaled to controls: 0 for no effect and ±100 for the full control effect; luciferase read-out
# RE007 growth inh – less growth of the S. pombe RE007 Vpr strain. S. pombe RE007 Vpr strain, BacTiter-Glo ATP luminescence, 24 h; control for the full effect not named in the record. 360,000 tested, 0.21% active. Potency, µM (top dose mostly 92.2 µM), for the others: at the highest dose activity change, negative = less growth; active = well fitted falling curve with a large enough effect; inconclusive = small, poorly fitted or top-dose-only effect; inactive = no such curve, though single readings can be large or run the other way;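 also: % is scaled to controls: 0 for no effect and ±100 for the full control effect; nearly all actives have a fitted effect of over 50% in size; the assay follows cell death caused by Vpr and the record does not say whether a fall means rescue or toxicity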
#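 Fission yeast strain RE007, carrying one chromosomally integrated HIV-1 vpr copy, was seeded at OD 0.01 in PMG+AL medium with 23 nL pinned compound. After 24 h at 30 °C and 99% humidity, viability was read by BacTiter-Glo luminescence.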
# LASV entry inh – inhibitors of Lassa virus binding or cell entry; Lassa virus pseudotype entry inhibition, cell reporter; control for the full effect not named in the record; Potency, µM (top dose mostly 37.9 µM), for inactives: top-dose activity change, negative = inhibition, most hits filed as inhibitors; 300,000 tested, 1.2% active; AID 540256; active means well fitted inhibition curve with a large enough effect; inconclusive means small, poorly fitted or top-dose-only effect, or effect the other way; inactive means flat fitted curve, though single readings scatter; tested in HEK293 cells; also: % is scaled to controls: 0 for no effect and ±100 for the full control effect; nearly all actives have a fitted effect of over 50% in size; luciferase read-out
# Cruzain noTriton – cruzain (T. cruzi) inhibition without detergent; Potency, µM, without a hit: max response, negative = inhibition, actives largely listed as inhibitors; 200,000 tested, 2.3% active; purified cruzain, Z-FR-AMC fluorescence, no detergent; active = well fitted curve in the direction sought with a large enough effect; inconclusive = small, poorly fitted or top-dose-only effect, or another doubt; inactive = no such curve, though single readings can be large; an effect the other way counts as inactive or inconclusive;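 also: plate controls were enzyme without inhibitor for no effect and buffer without enzyme for full effect; nearly all actives have a fitted effect of over 40% in size; top concentration of the series not given in the record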
# Target sequence (P25779 123-467 limits assumed): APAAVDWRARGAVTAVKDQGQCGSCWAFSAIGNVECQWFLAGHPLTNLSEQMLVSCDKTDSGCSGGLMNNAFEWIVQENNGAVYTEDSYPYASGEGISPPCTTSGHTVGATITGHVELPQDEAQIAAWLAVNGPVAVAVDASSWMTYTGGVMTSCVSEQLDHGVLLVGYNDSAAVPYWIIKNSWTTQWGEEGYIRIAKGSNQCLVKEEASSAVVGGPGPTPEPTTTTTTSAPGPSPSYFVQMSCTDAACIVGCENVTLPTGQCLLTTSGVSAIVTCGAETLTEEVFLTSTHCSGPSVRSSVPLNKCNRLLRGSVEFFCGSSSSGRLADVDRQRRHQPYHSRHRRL
#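 Purified cruzain at 1.5 nM, pre-incubated 15 min with compound at room temperature in 100 mM sodium acetate pH 5.5, 5 mM DTT, 0.00005% Triton X-100. Reaction started with 2 uM Z-FR-AMC; AMC fluorescence increase over 60 s gives rate.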
# 2A StopGo – FMDV 2A StopGo reporter, luciferase signal; human cells with a luciferase reporter of 2A StopGo recoding; control for the full effect not named in the record; Potency, µM (highest dose often 57.9 µM), inactives show top-dose signal change, negative = less light; 410,000 tested, 1.2% active; AID 1159524; active = well fitted falling curve with a large enough effect; inconclusive = small, poorly fitted or top-dose-only effect; inactive = no such curve, though single readings can be large or run the other way; tested in HEK293T cells; also: % is scaled to controls: 0 for no effect and ±100 for the full control effect; nearly all actives have a fitted effect of over 45% in size; luciferase light after 4 h
# SARS PLpro yeast – blocks SARS-CoV papain-like protease in a yeast assay; S. cerevisiae expressing SARS-CoV PLpro, growth rescue; control for the full effect not named in the record; Potency, µM (series often up to 32.9 µM), for the others: at the highest dose activity, positive = growth rescue; 330,000 tested, 0.19% active; AID 485353; also: 0% is about no effect; nearly all actives have a fitted effect of over 55% in size; growth read by luminescence after 48 h
# NS1 function inh – inhibitors of influenza NS1 protein function; S. cerevisiae slowed by influenza A NS1, growth recovery by OD600; Potency, µM (highest dose often 46.1 µM), for the others: at the highest dose activity, positive = more growth; 270,000 tested, 0.4% active; also: actives are rising curves; nearly all actives have a fitted effect of over 50% in size
#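 Read-out: OD600 growth recovery of NS1-expressing budding yeast. Cells grown overnight at 30C in -URA glucose medium, washed, resuspended and diluted 1:100 in 2% galactose assay medium, pH 6.0. Same strain lacking NS1 served as positive control.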
# Cruzain inh Det – cruzain (T. cruzi) inhibition with detergent; Potency, µM, for the others: max response, negative = inhibition, hits mostly inhibitors; AID 1478; purified cruzain, Z-FR-AMC fluorescence, 0.01% Triton; 200,000 tested, 0.43% active; P25779; active = well fitted curve in the direction sought with a large enough effect; inconclusive = small, poorly fitted or top-dose-only effect, or another doubt; inactive = no such curve, though single readings can be large; an effect the other way counts as inactive or inconclusive;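 also: plate controls were neutral wells for no effect and buffer without enzyme for full effect; nearly all actives have a fitted effect of over 40% in size; top concentration of the series not given in the record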
#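 Enzyme 1.5 nM, Z-FR-AMC 2 uM, NaOAc 100 mM pH 5.5, DTT 5 mM, Triton X-100 0.01%; 15 min RT compound preincubation; kinetic ex360/em450, 60 s delta.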
# Active calls of the source: *; ? = inconclusive; / = no result given; & = joins results of further samples; [ ] = another dose, or the depositor's remark. Unless noted, calls follow the shape of the dose curve; as a rule, active means well fitted rising curve with a large enough effect; inconclusive means small, poorly fitted or top-dose-only effect; inactive means no such curve, though single readings can be large or run the other way. Potency is read from the fitted curve at half-maximal effect.
# Screens by letter – A = MARV entry inh; B = RE007 growth inh; C = LASV entry inh; D = Cruzain noTriton; E = 2A StopGo; F = SARS PLpro yeast; G = NS1 function inh; H = Cruzain inh Det
c1ccc(-c2nnc(NC3=NCCC3)o2)cc1
  A = ? | B = -19% | C = 7.1µM* | D = / | E = -35% | F = -2% | G = 0% | H = /

Cc1cc(C)cc(NC(=O)C(=O)NCC(c2cccnc2)N2CCOCC2)c1 (stereo not drawn)
  A = / | B = / | C = -9%[46.1 µM] | D = 9% | E = -1% | F = / | G = / | H = 0.2%

Cc1cc(C)cc(NC(=O)COC(=O)COc2cccc3c2OC(C)(C)C3)c1
  A = 10% | B = 0% | C = 0% | D = / | E = -8% | F = -16% | G = / | H = /

CCOc1ccccc1CN1C(=O)NC(C)(c2ccccc2)C1=O (stereo not drawn)
  A = ? | B = -17% | C = 0% | D = 7% | E = ? | F = -7% | G = 9% | H = -0.3%

O=C(Nc1ccc(Cl)cc1)C1C2CCC3C(CCC21)C3(Cl)Cl (stereo not drawn)
  A = -26% | B = 10% | C = ? | D = ? | E = -8% | F = -18% | G = -55% | H = 1.5%

CS(=O)(=O)N1CCC(C(=O)NCc2ccc(F)cc2Cl)CC1
  A = 9% | B = 12% | C = 0% | D = 1% | E = / | F = -2% | G = -15% | H = -1.0%

CCCCCn1c(CCC(=O)Oc2ccccc2OC)nc2c1c(=O)[nH]c(=O)n2CCCC
  A = 20% | B = 14% | C = -28% | D = 1% | E = -17% | F = 11% | G = 10% | H = 1.1%

Cc1cc(Cl)ccc1OC(C)C(=O)NCCCCc1ccccc1 (stereo not drawn)
  A = 1% | B = -14% | C = -20% | D = -17% | E = -22% | F = -13% | G = -60% | H = -5.1%

COC(=O)c1sc2nc(-c3ccco3)ccc2c1N
  A = -25% | B = -16% | C = ? | D = -17% | E = -27% | F = -10% | G = -15% | H = -9.1%

COc1ccc(-c2[nH]ncc2CN(C)Cc2nonc2C)c(OC)c1
  A = / | B = 7% | C = / | D = / | E = -7% | F = -1% | G = 2% | H = /

CN(/N=C/C=C/c1ccccc1)c1cc(=O)n(C)c(=O)[nH]1
  A = -17% | B = ? | C = -1% | D = -16% | E = -7% | F = -6% | G = -6% | H = -8.6%

CC=C(C)C(=O)OC1CCN2CC=C(COC(=O)C(O)(C(C)OC)C(C)(C)O)C12 (stereo not drawn)
  A = -4%[46.1 µM] | B = 6% | C = 23%[46.1 µM] | D = / | E = -13% | F = / | G = / | H = /

CCCCCCn1c(=O)[nH]c2c(c1=O)CCC2
  A = 6%[46.1 µM] | B = 5% | C = -15%[46.1 µM] | D = / | E = 0% | F = -2% | G = -1% | H = /

CC1=C(C#N)C2C(/C1=N/O)C2(C)C (stereo not drawn)
  A = -2% | B = 18% | C = -30% | D = 8% | E = / | F = 5% | G = -4% | H = -2.3%

Cc1ccc(S(=O)(=O)N2CCC(=O)N([C@H](COCc3ccc(Cl)cc3)Cc3ccccc3)CC2)cc1
  A = / | B = 11% | C = / | D = 12% | E = -24% | F = / | G = / | H = -0.3%

Cc1ccc(-c2nnc(Nc3cccc(O)c3)c3ccccc23)cc1S(=O)(=O)NCC1CCCO1 (stereo not drawn)
  A = 9%[46.1 µM] | B = / | C = -4%[46.1 µM] | D = -5% | E = 13% | F = / | G = / | H = -5.7%

COc1ccc(/C(N)=N/OC(=O)Cc2cccs2)cc1OC
  A = ? | B = -6% | C = 0% | D = 19% | E = 35%[activator] | F = -2% | G = -1% | H = -3.3%

CCC12OC(=N)C(C#N)(C1C)C(C#N)(C#N)C(c1ccccc1)O2 (stereo not drawn)
  A = 0% | B = 0% | C = 2% | D = -8% | E = -14% | F = 8% | G = 2% | H = -6.9%

O=C(NCC#CCOCc1ccccc1)c1ccccc1
  A = 26% | B = 2% | C = -4% | D = 13µM* | E = 1% | F = 5% | G = -9% | H = 11µM*

CCc1ccccc1NC(=O)NCc1cccnc1
  A = / | B = -4% | C = / | D = / | E = -12% | F = 3% | G = 0% | H = /

CCN1CCN(CCC(=O)Nc2ccc(C)cc2)CC1
  A = / | B = 11% | C = / | D = / | E = -13% | F = 2% | G = 15% | H = /

N#CCCn1cc(C(=O)O)c(-c2cc3ccccc3o2)n1
  A = -4% | B = 0% | C = 6% | D = 0% | E = -5% | F = 6% | G = 4% | H = -1.3%

COc1ccc(N=C2SCC(c3ccccc3)=NN2C)cc1
  A = / | B = -1% | C = / | D = / | E = 17% | F = -1% | G = -8% | H = /

Cc1cc2ccccc2c(=O)n1CC(=O)NCC(=O)N1CCC2(CC1)OCCO2
  A = 1%[46.1 µM] | B = 24% | C = 4% | D = / | E = -4% | F = -1% | G = / | H = /

CCOc1ccc(C2OC34CCCCC3C(C#N)(C#N)C2(C#N)C(=N)O4)cc1OC (stereo not drawn)
  A = 6% | B = -2% | C = 13% | D = -1% | E = 3% | F = -6% | G = 23% | H = -12%

NC(=S)NN=C1CCCCCCCCCC1
  A = -2% | B = -10% | C = -16% | D = / | E = ? | F = / | G = / | H = /

CC(=O)Nc1ccc(N2C(=O)CC(N3CCN(Cc4ccc5c(c4)OCO5)CC3)C2=O)cc1 (stereo not drawn)
  A = 3% | B = -11% | C = -6% | D = -16% | E = -9% | F = 6% | G = 6% | H = -0.9%

CCCCn1nnnc1SCC(=O)N1CCN(C(=O)c2ccco2)CC1
  A = 23% | B = -8% | C = -21% | D = -7% | E = 9% | F = -2% | G = -9% | H = -0.6%

Cc1ccc(C(=O)Nc2ccc3oc(-c4ccncc4)nc3c2)c(Cl)c1
  A = ? | B = / | C = 0%[46.1 µM] | D = -3% | E = -22% | F = / | G = / | H = -9.9%

c1csc(-c2nc(NCCCN3CCOCC3)c3ccccc3n2)c1
  A = -4%[46.1 µM] | B = -26% | C = ? | D = / | E = -6% | F = 4% | G = -8% | H = /

CCSC1=NSC2=NC(=O)/C(=C\c3coc4ccccc4c3=O)C(=N)N12
  A = 19% | B = ? | C = 11% | D = ? | E = -22% | F = -96% | G = -14% | H = ?

NC(=O)c1nsc(C(=O)N(Cc2ccc(F)cc2)C(C(=O)NCC2CCCO2)c2ccc(F)cc2)c1N (stereo not drawn)
  A = 11µM* | B = -2% | C = -8% | D = / | E = 16% | F = 14% | G = 13% | H = /

COC(C(=O)N1CCC(n2nccc2NC(=O)C2CC2)CC1)c1ccccc1 (stereo not drawn)
  A = 18%[46.1 µM] | B = 3% | C = 23%[46.1 µM] | D = / | E = 43%[activator] | F = 5% | G = -5% | H = /

O=C1NC(=S)N/C1=C/c1ccc2ccccc2c1
  A = / | B = -2% | C = / | D = / | E = 29% | F = -6% | G = 3% | H = /

O=c1c([N+](=O)[O-])cc(C(F)(F)F)cn1Cc1cccc(Cl)c1
  A = 0% | B = -1% | C = -5% | D = -1% | E = -5% | F = 4% | G = 4% | H = -6.0%

COC1CCN(C(=O)c2ccc(OC3CCN(Cc4ccccn4)CC3)cc2)CC1
  A = 5%[46.1 µM] | B = -2% | C = ? | D = / | E = 10% | F = -1% | G = ? | H = /

CC(Sc1nc2ccc(C(=O)c3ccccc3)cc2[nH]1)C(=O)O (stereo not drawn)
  A = ? | B = -6% | C = -3% | D = / | E = -16% | F = -5% | G = 11% | H = /

C=CCn1c(-c2oc3nc(-c4ccccc4)cc(-c4ccccc4)c3c2N)n[nH]c1=S
  A = -19% | B = 51% | C = -38% | D = 25µM* | E = -20% | F = -15% | G = 1.1µM* | H = -11%

O=C(Nc1nnc(C2CC2)s1)c1ccc(S(=O)(=O)c2ccccc2)cc1
  A = -5% | B = -5% | C = 13% | D = ? | E = -13% | F = 0% | G = 13% | H = 6.2%

C=CC(C)(O)CCC=C(C)C (stereo not drawn)
  A = / | B = -4% | C = / | D = 0%&-2% | E = -19% | F = 1% | G = / | H = 1.4%&-4.6%

Cc1ccc(C(=O)NCc2ccc(N3CCN(C(=O)OC(C)(C)C)CC3)cc2)cc1
  A = 2% | B = 4% | C = 5% | D = -7% | E = ? | F = -3% | G = 3% | H = 3.2%

CC1CCN(c2ccccc2NC(=O)c2ccc(Br)o2)CC1
  A = -16% | B = 3% | C = -20% | D = / | E = ? | F = -2% | G = -36% | H = /

Cc1c(C)n(Cc2ccc(Cl)cc2)c2ccc(C(=O)NCCCN3CCOCC3)cc12
  A = / | B = 7% | C = / | D = / | E = -9% | F = 20% | G = 3% | H = /

Cc1ccc(NC(=S)N(CCCN2CCOCC2)Cc2ccccn2)cc1Cl
  A = 12% | B = -11% | C = -10% | D = -5% | E = -10% | F = -17% | G = 17% | H = 0.2%

O=c1c2ccccc2c(C=Nc2cccc(O)c2)c(O)n1-c1ccc2c(c1)OCO2
  A = -13% | B = -13% | C = -17% | D = 10% | E = -33% | F = -6% | G = 28% | H = -1.9%

Cc1c(Cl)cccc1NC(=S)NN
  A = / | B = 0% | C = / | D = / | E = 1% | F = 1% | G = 14% | H = /

COc1cccc(NC(=O)c2ccn(C)n2)c1
  A = 2% | B = -2% | C = ? | D = 3% | E = 57%[activator] | F = -11% | G = 1% | H = 7.3%

COc1ccc(NC2CCCN(C(=O)c3cccnc3SC)C2)cc1OC (stereo not drawn)
  A = / | B = -5% | C = / | D = / | E = 6% | F = 0% | G = 30% | H = /

# 3 entries from above in another layout.
Compound	MARV entry inh	RE007 growth inh	LASV entry inh	Cruzain noTriton	2A StopGo	SARS PLpro yeast	NS1 function inh	Cruzain inh Det
Cc1ccc(NC(=S)N(CCCN2CCOCC2)Cc2ccccn2)cc1Cl	12%	-11%	-10%	-5%	-10%	-17%	17%	0.2%
COc1ccc(NC2CCCN(C(=O)c3cccnc3SC)C2)cc1OC (stereo not drawn)	/	-5%	/	/	6%	0%	30%	/
O=c1c2ccccc2c(C=Nc2cccc(O)c2)c(O)n1-c1ccc2c(c1)OCO2	-13%	-13%	-17%	10%	-33%	-6%	28%	-1.9%

# Assay outcomes (PubChem BioAssay)
